From PubChem BioAssay
VACV Venus inh – vaccinia inhibition (Venus reporter). Vaccinia virus Venus reporter expression, fluorescence. 0.46% of 330,000 active. Potency, µM (titrated, usually from 36.5 µM), inactives show top-dose activity change, negative = inhibition, usual class: inhibitors. AID 720580; active means well fitted inhibition curve with a large enough effect; inconclusive means small, poorly fitted or top-dose-only effect; inactive means no such curve, though single readings can be large or run the other way; tested in A549 cells; further: nearly all actives have a fitted effect of over 30% in size; inactives centre near -10
VACV mCherry inh – vaccinia inhibition (mCherry reporter); Potency, µM (highest dose often 36.5 µM), for the others: top-dose activity change, negative = inhibition, most hits filed as inhibitors; 0.63% of 310,000 active; Vaccinia virus mCherry reporter infection, fluorescence; about a quarter of the inactives have no number; active = well fitted inhibition curve with a large enough effect; inconclusive = small, poorly fitted or top-dose-only effect; inactive = no such curve, though single readings can be large or run the other way; tested in A549 cells; further: nearly all actives have a fitted effect of over 35% in size; inactives centre near -10
* hit, by the source's call; i = inactive; ? = inconclusive; . = not tested or not shown; & = joins results of further samples; [ ] = dose if it differs, or a comment. On the % scale 0 is the no-effect control and ±100 the full control effect; potency means the concentration at half of the fitted maximal effect. Rows are unselected; 0.88% or so of the library scored in one or more.

Order of values – VACV Venus inh, VACV mCherry inh
- COc1ccc(-n2c(=O)cc(N3CCOCC3)[nH]c2=O)cc1
    0.6%, -6.9%
- Cc1cc(C)cc(OCC(=O)OCC(=O)NC2CCCCCCC2)c1
    -13.0%, i
- CCc1ccc(/C=N/n2c(C)cc(C)c(C#N)c2=O)cc1
    -22.5%, -7.1%
- O=C(CC1C(=O)NCCN1Cc1c(F)cccc1Cl)NCCCN1CCCC1=O (configuration not stated)
    -11.4%, i
- O=C(O)CSC(=S)N1CCCCC1
    -2.5%, -5.1%
- CCOC(=O)CN1C(=O)/C(=C/c2ccccc2Br)Oc2ccccc21
    -21.8%, i
- Cn1c(=O)[nH]c(Nc2ccc(F)cc2)c([N+](=O)[O-])c1=O
    -8.1%, i
- COc1ccc(CN2C(=O)c3ccccc3C2(C)c2nc3ccccc3[nH]2)cc1 (configuration not stated)
    -3.6%, 41.7%[activator]
- COc1cc(C(=O)OCC(=O)NC(C)CCc2ccccc2)cc(OC)c1OC (configuration not stated)
    -11.5%, -6.1%
- COc1cccc(OC)c1OCCCOc1ccc([N+](=O)[O-])cc1Cl
    -10.3%, i
- CC(=O)Nc1cc(-c2cccc(N)c2)cn2c(-c3ccccc3)cnc12
    -1.7%, 0.3%
- COc1ccc2nc(NS(=O)(=O)c3ccc(C)cc3)c(Nc3cc(Cl)ccc3OC)nc2c1
    36.6%[activator], -16.6%
- CC1CCCN(C(=O)COC(=O)c2cc(-c3cccs3)nn2-c2ccccc2)C1 (configuration not stated)
    -10.3%, -13.3%
- COc1cc(NC(=O)CSc2nnc3c(C)cc4cc(C)cc(C)c4n23)c(C(=O)O)cc1OC
    -7.8%, i
- O=C(CCNC(=O)c1ccccc1)OCC(=O)c1ccccc1
    -2.9%, i
- Cc1ccc(NC(=O)c2oc3ccccc3c2NC(=O)c2ccc(F)c(F)c2)cc1
    3.8%, -5.4%
- COC(=O)c1cc(CSC(=N)N)ccc1OCCC(C)C
    1.7%[7.34 µM], ?
- O=C(C(=O)N1CCc2ccccc2C1)c1cn(CC(=O)N2CCCCC2)c2ccccc12
    -23.5%, -21.6%
- COc1cc(NC(=O)CN(C)Cc2ccc(OC(F)F)cc2)c(C)cc1[N+](=O)[O-]
    -13.1%, -20.4%
- COc1ccc(N(C)C(=O)Nc2ccc3c(c2)nnn3C)cc1
    -0.4%, i

(continued)
Order of values – VACV Venus inh, VACV mCherry inh
- COc1ccc(Br)cc1C(=O)Nc1cccc2ccc(C)nc12
    -14.8%, -12.9%
- CCOc1ccc(S(=O)(=O)NCCCn2ccnc2)cc1NC(C)=O
    -7.7%, i
- Cc1ccc(-c2nc(C#N)c(NCC3CCCO3)o2)cc1 (configuration not stated)
    -4.1%, -7.3%
- Cc1nc(=O)c(-c2ccccc2)c(C)n1-c1cccc(C(=O)O)c1
    -18.1%, -5.1%
- CCN(CC)C(=O)OCc1c(-c2cccc(OC)c2)ncc2ccccc12
    -11.8%, -22.9%
- O=C(COC(=O)c1ccc(S(=O)(=O)NCc2ccco2)cc1)Nc1ccccc1
    -8.5%, -17.5%
- CN1CCN(c2ccc(S(=O)(=O)Nc3ccccc3)cc2[N+](=O)[O-])CC1
    -21.6%, -0.5%
- C[N+]1(C)CC2=Cc3ccccc3CC2C1 (configuration not stated)
    -20.8%, -0.7%
- CCC(CC)c1nnc(NC(=O)c2ccc3ccccc3n2)s1
    -20.3%, -25.1%
- O=C(C[C@@H]1C/C=C\C[C@H](Cc2ccc(F)cc2)C(=O)OC[C@H]2CCCN2C1=O)NCCO
    0.7%, -10.9%
- COc1ccc(-c2cn3nc(N4CCCC(C(=O)NCc5ccccc5C)C4)sc3n2)cc1 (configuration not stated)
    -28.0%, -23.0%
- CCCC(C)CO (configuration not stated)
    -7.7%, i
- CC1(C(=O)Nc2ccc3nc[nH]c3c2)CCN1C(=O)Cc1ccc(-c2ccccc2)cc1 (configuration not stated)
    -21.9%, i
- COCCNC(=O)C1CC(c2cccc([N+](=O)[O-])c2)=NO1 (configuration not stated)
    -9.1%, -18.1%
- O=C(O)c1cc([N+](=O)[O-])cc2ccccc12
    -2.6%, -18.5%
- CN(C)S(=O)(=O)c1ccc(Cl)c(NC(=O)CNC2(C)CCS(=O)(=O)C2)c1 (configuration not stated)
    2.8%, -10.5%
- O=C(c1ccc(S(=O)(=O)N2CCCC2)cc1)N1CCN(Cc2ccc3c(c2)OCO3)CC1
    -0.4%, .
- CCN(c1ccccc1)S(=O)(=O)c1ccc(NC(=O)c2cc(=O)c3cc(C)cc(C)c3o2)cc1
    -3.5%, 11.5%
- COc1ccccc1NC(=S)N1CCn2cccc2C1c1cccnc1 (configuration not stated)
    -5.0%, -3.6%
- COCCNC(=O)CSCc1cc(C)cc(C)c1
    -10.7%, -1.2%

Compounds from the list above that contain a furan ring, fused or not, in the order listed:
Order of values – VACV Venus inh, VACV mCherry inh
- Cc1ccc(NC(=O)c2oc3ccccc3c2NC(=O)c2ccc(F)c(F)c2)cc1
    3.8%, -5.4%
- O=C(COC(=O)c1ccc(S(=O)(=O)NCc2ccco2)cc1)Nc1ccccc1
    -8.5%, -17.5%

Continued.
Order of values – VACV Venus inh, VACV mCherry inh
- CCNC(=O)C(=O)Nc1ccc(OC)c(Cl)c1
    -6.7%, 0.5%
- Cc1ccc(S(=O)(=O)N2[C@@H](c3ccc(Cl)cc3)C(C(=O)O)=CC[C@H]2c2ccc(C(C)C)cc2)cc1
    -22.5%, -2.0%
- Cc1cccc(C(=O)NNC(=O)c2ccccc2-n2cccc2)c1
    -10.7%, i
- CCCN1CCN(CCCNC(=O)c2cnn(-c3ccc(F)cc3)c2-n2cccc2)CC1
    -6.1%, -4.0%
- COc1ccc(NC(=O)Cn2ccn(-c3ccccc3)c(=O)c2=O)cc1
    -1.1%, -3.2%
- CN(CC(=O)Nc1c(Cl)cccc1Cl)C(=O)CCC(=O)c1ccccc1
    6.3%, -5.0%
- Cn1c(SCC(=O)Nc2ccc(F)cc2)nc2c([nH]c3ccccc32)c1=O
    0.2%&-20.2%, ?
- COc1ccc(NS(=O)(=O)c2ccc(NC(=O)C3CC3)cc2)cc1
    -12.2%, i
- O=C(c1cc2ccccc2oc1=O)N1CCN(c2ccc(F)cc2)CC1
    10.2%, -4.7%
- Cc1ccc(Oc2ncc(-c3ccc(Cl)cc3)cn2)cc1
    -9.9%, .
- O=C(N/N=C1/CC2CCC1C2)c1cc2ccccc2cc1O (configuration not stated)
    -2.2%, i
- Cn1cnc([N+](=O)[O-])c1Sc1nnc(-c2cccnc2)n1C
    -12.3%, i
- Cc1ccccc1-c1nnc2c3ccccc3c(C)nn12
    -18.6%, .
- Cc1cccc(NS(=O)(=O)c2nnc(NC(=O)C3CCCCC3)s2)c1
    -10.8%&-5.1%, -10.4%
- O=C(Cc1ccccc1)Nc1ccc(N2CCOCC2)cc1N1CCOCC1
    -9.5%, -9.8%
- CCc1ccc(N(C(=O)c2snc(C(N)=O)c2N)C(C(=O)NCC2CCCO2)c2cccs2)cc1 (configuration not stated)
    -15.0%, i
- COc1ccc(/C=N/Nc2ncc(-c3ccccc3)cn2)c(OC)c1
    -11.4%, i
- COc1ccccc1CNC(=O)CCC1N=C2c3ccccc3N=C(SCC(=O)Nc3ccc(N(C)C)cc3)N2C1=O (configuration not stated)
    2.2%, -3.3%
- COc1ccc(-n2c(=O)c3ccccc3n(CC(=O)NCCc3ccccc3)c2=O)c(OC)c1
    2.5%, -11.1%
- Cc1ccc(CNC(=O)c2c(Nc3ccccc3C)sc(C(=O)c3ccc(F)cc3)c2N)cc1
    ?, 11.2µM*

Complete entries, looked up by structure.
COc1ccc(N(C)C(=O)Nc2ccc3c(c2)nnn3C)cc1 across the screens: VACV Venus inh: -0.4%; VACV mCherry inh: i
CC1CCCN(C(=O)COC(=O)c2cc(-c3cccs3)nn2-c2ccccc2)C1 (configuration not stated) across the screens: VACV Venus inh: -10.3%; VACV mCherry inh: -13.3%

Continuation.
Order of values – VACV Venus inh, VACV mCherry inh
- O=C(C1CC(=O)N(c2ccc(Cl)cc2)C1)N1CCOCC1 (configuration not stated)
    17.0%, 1.9%
- Cc1cc(C)n2c3c(c(C#N)c2n1)CCCC3
    -15.9%, -22.6%
- O=[N+]([O-])c1ccc(/C=N/Nc2nc(N3CCCC3)nc(N3CCCC3)n2)o1
    -11.0%, i
- O=C(Nc1ccc(F)cc1F)c1ccc(-n2cnc3cccnc32)cc1
    -0.9%, 0.1%
- O=C(c1ccccc1)c1cc([N+](=O)[O-])ccc1N1CCOCC1
    ?, ?
- C=CCn1c(=O)c2ccccc2n2c(SCC(=O)Nc3cc(C)on3)nnc12
    -5.1%, -5.6%
- Cc1cc(C)n(C(C)CC(=O)Nc2ccc(Cl)cc2C)n1 (configuration not stated)
    -4.7%, -2.7%
- CC1Oc2ccccc2N(CC(=O)Nc2ccc(F)cc2)C1=O (configuration not stated)
    -6.3%, i
- COc1cccc(-c2nc(-c3ccc(NC(=O)c4cccnc4)cc3)no2)c1
    -18.6%, .
- COc1ccc(CNC(=O)c2ccccc2NS(C)(=O)=O)cc1
    -9.4%, -13.9%
- CSc1ccc(/C=N/Nc2nc(C)cc(C)n2)cc1
    -6.0%, i
- Cn1cnc(S(=O)(=O)N2CCCCC2c2cc(C(=O)Nc3ccccc3Cl)no2)c1 (configuration not stated)
    1.3%, 3.3%
- Cc1cc(C)c(NC(=O)Nc2csc3c2CCCC3)c(C)c1
    -8.2%, -5.7%
- O=C(Nc1ccccc1Br)c1ccccc1-c1ccccc1
    -16.4%, -13.7%
- COc1ccc(OC)c(-n2c(SCC(C)=O)nnc2-c2cccc(S(=O)(=O)N(C)C)c2)c1
    -7.0%, -14.9%
- Cc1ccc(NC(=O)NC(=O)COc2c(F)c(F)cc(F)c2F)c(C)c1
    -1.6%, i
- CC(C)c1cc(N2CCC(=O)NC2=O)cc(C(=O)O)c1O
    -7.0%, -17.2%
- Cc1cccn2c(=O)c3cc(C(=O)NCCN4CCOCC4)n(C)c3nc12
    -8.9%, -14.5%
- COc1cc2[nH]c3c(=O)n4c(nc3c2cc1OC)SCCC4
    ?, ?
- COc1ccc(-c2noc(N(c3ccc(F)c(Cl)c3)c3nc(-c4ccc(OC)c(OC)c4)no3)n2)cc1OC
    -5.5%, 0.4%

Other structures:
Order of values – VACV Venus inh, VACV mCherry inh
- COc1ccc(C(CNC(=O)COc2ccccc2C#N)N2CCOCC2)cc1 (configuration not stated)
    -2.3%, .
- CC(C)CCNC(=O)C(c1ccc(O)cc1)N(C(=O)C1COc2ccccc2O1)c1cccc(O)c1 (configuration not stated)
    -14.2%, i
- C=C(C)/C=N/NC(=S)Nc1ccc(S(=O)(=O)N2CCOCC2)cc1
    -4.6%, i
- COc1ccc(CCC(=O)OCC(=O)N2CCN(S(=O)(=O)c3ccc(C)cc3C)CC2)cc1
    -7.5%, -14.7%
- CCC(=O)N1CCc2cc(Br)cc(S(=O)(=O)CCC(=O)Nc3cccc(Cl)c3)c21
    -11.6%, -5.8%
- CCOc1ccc(CCNC(=O)c2ccc3c(c2)c(C)c(C)n3Cc2ccccc2)cc1OCC
    ?, ?
- CC(C)CCNC(=O)CCc1nnc2n(CCCOC(C)C)c(=O)c3ccccc3n12
    0.2%, -12.7%
- COc1cc(OC)cc(-c2c(C#Cc3ccsc3)c3cc(-c4ccc5c(c4)OCCO5)ccc3n2C)c1
    -5.5%, i
- COc1ccc(CNc2ncccn2)cc1OC
    -4.8%, i
- Cc1cccc(NC(=O)c2c(NC(=O)C(F)(F)F)sc3c2CCCCC3)c1
    ?, ?
- COC(=O)c1ccc2c(c1)sc(=NC(=O)c1ccc(S(=O)(=O)N3CCCCC3)cc1)n2C
    4.4%, -0.2%
- O=C(N/N=C/c1ccc2c(c1)OCO2)c1cc(-c2ccco2)nc2ccccc12
    -17.4%, ?
- C=CCn1cnc2c(oc3ccccc32)c1=O
    -10.9%, -11.6%
- CCOC(=O)[C@@H]1[C@H]2COc3ccccc3[C@@H]2N2C(=O)N(c3ccc(C)cc3)C(=O)[C@]12C
    -9.4%, -12.2%
- O=Nc1c(O)n(Cc2c(Cl)cccc2Cl)c2ccccc12
    -26.1%, ?
- CN1CCN(CCCNC(=O)c2cc3c(=O)n(C)c4ccccc4c3s2)CC1
    2.1%, 33.2%[activator]
- Cn1c(Cc2ccccc2)nnc1SCC(=O)N1CCN(c2ccccc2)CC1
    -26.7%, -8.8%
- CC1CCCCC1NS(=O)(=O)c1ccc(-n2cnnn2)cc1 (configuration not stated)
    -2.0%, -8.7%
- Cc1ccc(S(=O)(=O)N2[C@H](CC(=O)c3ccc(Cl)c(Cl)c3)OC[C@@H]2C)cc1
    -18.3%, i
- [O-][n+]1c2ccccc2c2n1CCCN=C2c1ccc(Cl)cc1
    -5.3%, -9.6%

Further records
Order of values – VACV Venus inh, VACV mCherry inh
- CCCCCC(=O)NC(=S)Nc1ccc2oc(=O)ccc2c1
    -4.3%, -1.5%
- O=C(Nc1cccc(-c2nc3ccccc3o2)c1)c1ccc(-c2ccc(Br)cc2)o1
    -2.5%, -5.4%
- CCOC(=O)c1cn(CC)c2cc(Cl)c([N+](=O)[O-])cc2c1=O
    0.0%, i
- COc1cccc(NC(=O)CN(C)C(=O)c2ccc(OCC3CCCO3)cc2)c1 (configuration not stated)
    -8.2%, -15.9%
- Cc1cc(OCc2nnc(SC(C)C(=O)O)n2Cc2ccccc2)ccc1Cl (configuration not stated)
    -3.9%, -7.9%

2 compounds drawn at random from the list so far, as already listed:
Order of values – VACV Venus inh, VACV mCherry inh
- CCOc1ccc(CCNC(=O)c2ccc3c(c2)c(C)c(C)n3Cc2ccccc2)cc1OCC
    ?, ?
- O=C(C1CC(=O)N(c2ccc(Cl)cc2)C1)N1CCOCC1 (configuration not stated)
    17.0%, 1.9%
